N370S GC = N370S glucocerebrosidase modulation, Gaucher chaperone candidate; 330,000 compounds, 0.092% hits; N370S GC spleen homogenate, 4MU-glucoside fluorescence; Potency, µM (highest dose often 59.4 µM), for the others: top-dose activity change, negative = inhibition, actives largely listed as inhibitors; P04062;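 further: 0% = full enzyme activity and -100% = no enzyme basal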
GCN5L2 inh = blocks human GCN5L2 histone acetyltransferase; Potency, µM (highest dose often 58.9 µM), inactives show at the highest dose activity change, negative = inhibition, hits mostly inhibitors; 390,000 compounds, 0.21% hits; GCN5L2 HAT assay, ThioGlo1 CoA-SH fluorescence
Target sequence (Q92830 whole entry, looked up): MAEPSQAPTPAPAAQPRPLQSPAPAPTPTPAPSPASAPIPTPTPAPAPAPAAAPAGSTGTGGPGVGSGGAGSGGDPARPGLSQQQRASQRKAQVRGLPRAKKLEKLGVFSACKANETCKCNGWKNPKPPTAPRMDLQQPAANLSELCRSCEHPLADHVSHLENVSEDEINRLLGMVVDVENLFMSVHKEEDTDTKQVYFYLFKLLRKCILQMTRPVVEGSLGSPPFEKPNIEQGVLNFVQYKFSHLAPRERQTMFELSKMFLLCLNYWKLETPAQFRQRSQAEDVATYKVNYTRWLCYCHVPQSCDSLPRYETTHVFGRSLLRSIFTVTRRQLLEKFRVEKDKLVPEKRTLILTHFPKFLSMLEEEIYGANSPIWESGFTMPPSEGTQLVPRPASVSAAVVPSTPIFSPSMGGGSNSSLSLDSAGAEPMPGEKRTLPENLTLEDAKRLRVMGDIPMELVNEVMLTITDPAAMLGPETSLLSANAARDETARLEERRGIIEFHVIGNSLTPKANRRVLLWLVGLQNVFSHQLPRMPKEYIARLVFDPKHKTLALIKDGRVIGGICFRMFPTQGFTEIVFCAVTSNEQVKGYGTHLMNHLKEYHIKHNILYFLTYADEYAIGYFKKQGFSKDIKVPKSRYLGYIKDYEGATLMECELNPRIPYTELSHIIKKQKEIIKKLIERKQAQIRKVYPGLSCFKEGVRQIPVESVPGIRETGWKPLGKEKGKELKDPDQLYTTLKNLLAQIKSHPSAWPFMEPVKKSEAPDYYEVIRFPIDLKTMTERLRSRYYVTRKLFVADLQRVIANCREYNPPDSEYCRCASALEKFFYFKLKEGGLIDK
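Enzyme at 20nM final was mixed with library compounds for 15 min at room temperature. Peptide H3(1-25) at 75uM, acetyl-CoA at 70uM and ThioGlo1 at 50uM were then added. Plates were read immediately and after 20 min (Ex340nm/Em540nm).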
* marks the source's active call; other numbers are inactive results; ? = inconclusive; / = not tested or not shown; & = joins results of further samples; [ ] = remark or other dose. The call rests on the fitted dose curve; in most records, active means well fitted curve in the direction sought with a large enough effect; inconclusive means small, poorly fitted or top-dose-only effect, or another doubt; inactive means no such curve, though single readings can be large; an effect the other way counts as inactive or inconclusive. Unless noted, on the % scale 0 is the no-effect control and ±100 the full control effect; potency means the concentration at half of the fitted maximal effect. Only part of the results is shown, and most or all hits are left out here.

SMILES	N370S GC	GCN5L2 inh
CC1CCCC(NC(=O)CSc2nnc(-c3cccnc3)n2N)C1C (stereo not given)	/	-1%
COc1nccnc1NS(=O)(=O)c1ccc(N=Cc2c(C)[nH]n(-c3ccc(C)c(C)c3)c2=O)cc1	-13%	-4%
O=C(CCc1nnc(Cc2ccc3c(c2)OCO3)o1)NC(c1ccccn1)C(F)(F)F (stereo not given)	1%	1%
O=C(COC(=O)CCC(=O)c1ccccc1)Nc1nnc(-c2ccccc2)o1	1%	-8%
CN(CC(=O)NCc1ccncc1)S(=O)(=O)c1ccc(F)cc1	5%	8%
Cn1c(=O)c2c(SCC(=O)NCc3ccco3)nc(-c3cccc(F)c3)nc2n(C)c1=O	/	-6%
O=C1C=C(c2ccccc2)CC(/C=C/c2ccccc2)C1 (stereo not given)	29%	-9%
COc1ccc(CC(=O)Nc2nnc3n2CCS3)cc1OC	/	3%
COc1ccccc1NC(=O)COc1ccccc1	27%	-2%
CCOC(=O)N1CCN(S(=O)(=O)c2ccc(OC)c(Cl)c2Cl)CC1	5%	0%
O=C(Nc1cccc2ccccc12)N1CCN(c2ccccc2)CC1	-5%	-28%
Cc1ccc(S(=O)(=O)c2nc(S(C)(=O)=O)sc2N2CC(C)OC(C)C2)cc1 (stereo not given)	-1%	-4%
CCCCC(=O)Nc1ccc(C(=O)NNC(=O)c2cccs2)cc1	1%	33%[activator]
Cc1nnc2ccc(-c3cccc(NC(=O)c4ccc(Br)o4)c3)nn12	0%	-14%
COc1cc(=O)n(C)c2ccccc12	-13%	-6%
CC1CC(C)(C)NC(=S)O1 (stereo not given)	-6%&2%	-4%&1%
Cc1ccnc2nc(C(=O)OC(C)C(=O)NCc3ccccc3)nn12 (stereo not given)	/	-1%
CN(C)CCCn1c(=S)[nH]c2ccccc2c1=O	-4%	-3%
Cc1ccc(Cl)cc1NC(=O)c1cc2ccccc2cc1O	-11%	-15%
Cc1ccccc1NC(=O)C1Cc2ccccc2CN1C(=O)OCc1ccccc1 (stereo not given)	?	-1%
NS(=O)(=O)c1ccc(N2C(=O)C3CC=CCC3C2=O)cc1 (stereo not given)	2%	-1%
Cc1ccc(NC(=O)[C@@H]2CCCN2S(=O)(=O)c2ccc(Cl)cc2)cc1	/	1%
COc1ccc(OCC(=O)N/N=C2\CCCc3ccccc32)cc1	-2%	-1%
O=S1(=O)[C@H]2CC3O[C@]2(C[C@@H]3c2ccc(F)cc2)CN1Cc1ccc(Cl)cc1	18%	-15%
C[C@@H](O)C1NC(=O)[C@H](CCCCN)NC(=O)c2cc([N+](=O)[O-])cc(I)c2NCCC[C@@H](C(N)=O)NC1=O (stereo not given in full)	?	-4%
CS(=O)(=O)N1CCN(c2ccc([N+](=O)[O-])c(N3CCOCC3)c2)CC1	-14%	-5%
O=C(Nc1csc([N+](=O)[O-])c1)Nc1c(Cl)cccc1Cl	27%	0%
CCC(=O)NC(=S)Nc1ccc(NC(=O)c2ccc(Br)o2)cc1	-12%	-3%
NNc1ccc(Cc2ccc(Cl)cc2Cl)nn1	-2%	-8%
N#Cc1c(Nc2ccccc2)c(/C=N/N=C/c2ccccc2)c[nH]c1=O	-22%	12%
N=c1sccn1CC(=O)Nc1cc(S(=O)(=O)N2CCCCC2)ccc1Cl	-19%	-6%
Cc1cccc(C(=O)O/N=C(\N)Cc2ccc([N+](=O)[O-])cc2)c1	1%	?
CC(=O)O[C@]1(C(C)=O)CCC2C3CCC4=C/C(=N/OCC(=O)O)CC[C@]4(C)C3CC[C@@]21C (stereo not given in full)	3%	-4%
C=CC(=C)CC(NC)c1ccccc1 (stereo not given)	2%	-3%
COc1ccc(NC(=O)CSc2nccn2-c2cccc(OC)c2)cc1	-6%	-3%
O=C(COC(=O)c1ccc(=O)n(Cc2ccccc2)n1)Nc1ccc2c(c1)OCCO2	1%	-18%
O=S(=O)(c1ccc(Cl)cc1)c1ccccn1	-4%	-3%
CC(C)(C)OC(=O)CNC(=O)c1[nH]cnc1C(=O)NC1CCN(C(=O)OC(C)(C)C)CC1	3%	-3%
CCCCOc1ccc(C(=O)N(C)CC(=O)Nc2ccc(C)cc2)cc1	-1%	-4%
CC1Cc2ccccc2N1C(=O)CSc1nc2ccccc2s1 (stereo not given)	3%	-6%
COCCN(CC(=O)Nc1cccc(C)c1)S(=O)(=O)c1ccc(S(=O)(=O)N2CCCC2)cc1	-9%	-2%
O=C(NC(C(=O)N/N=C/c1cc([N+](=O)[O-])ccc1O)c1n[nH]c(=O)c2ccccc12)c1ccccc1 (stereo not given)	-30%	-11%
O=C(Nc1ccccc1)Nc1sccc1-c1nc2ccccc2s1	23%	-10%
COc1cc(C(=O)NCC(c2cccs2)N2CCc3ccccc32)cc(OC)c1OC (stereo not given)	-2%	-4%
Cc1c(Cl)ccc2c1NC(=O)[C@]21[C@@H]2C(=O)N(Cc3ccccc3)C(=O)[C@@H]2[C@@H]2CCCN21	27%	-15%
Cc1ccc(S(=O)(=O)NCCc2ccncc2)cc1C	-6%	-8%
COc1ccc(-c2nnsc2N2C(=O)c3ccccc3C2=O)cc1	-11%	4%
Cc1ccc2nc(-c3cccnc3)c(NC3CCCC3)n2c1	-14%	-1%

Rewritten with bars between the fields: 16 of the compounds above
SMILES | N370S GC | GCN5L2 inh
CC(=O)O[C@]1(C(C)=O)CCC2C3CCC4=C/C(=N/OCC(=O)O)CC[C@]4(C)C3CC[C@@]21C (stereo not given in full) | 3% | -4%
C=CC(=C)CC(NC)c1ccccc1 (stereo not given) | 2% | -3%
COc1ccc(NC(=O)CSc2nccn2-c2cccc(OC)c2)cc1 | -6% | -3%
O=C(COC(=O)c1ccc(=O)n(Cc2ccccc2)n1)Nc1ccc2c(c1)OCCO2 | 1% | -18%
O=S(=O)(c1ccc(Cl)cc1)c1ccccn1 | -4% | -3%
CC(C)(C)OC(=O)CNC(=O)c1[nH]cnc1C(=O)NC1CCN(C(=O)OC(C)(C)C)CC1 | 3% | -3%
CCCCOc1ccc(C(=O)N(C)CC(=O)Nc2ccc(C)cc2)cc1 | -1% | -4%
CC1Cc2ccccc2N1C(=O)CSc1nc2ccccc2s1 (stereo not given) | 3% | -6%
COCCN(CC(=O)Nc1cccc(C)c1)S(=O)(=O)c1ccc(S(=O)(=O)N2CCCC2)cc1 | -9% | -2%
O=C(NC(C(=O)N/N=C/c1cc([N+](=O)[O-])ccc1O)c1n[nH]c(=O)c2ccccc12)c1ccccc1 (stereo not given) | -30% | -11%
O=C(Nc1ccccc1)Nc1sccc1-c1nc2ccccc2s1 | 23% | -10%
COc1cc(C(=O)NCC(c2cccs2)N2CCc3ccccc32)cc(OC)c1OC (stereo not given) | -2% | -4%
Cc1c(Cl)ccc2c1NC(=O)[C@]21[C@@H]2C(=O)N(Cc3ccccc3)C(=O)[C@@H]2[C@@H]2CCCN21 | 27% | -15%
Cc1ccc(S(=O)(=O)NCCc2ccncc2)cc1C | -6% | -8%
COc1ccc(-c2nnsc2N2C(=O)c3ccccc3C2=O)cc1 | -11% | 4%
Cc1ccc2nc(-c3cccnc3)c(NC3CCCC3)n2c1 | -14% | -1%

The listing picks up with the two entries that preceded the break.
SMILES	N370S GC	GCN5L2 inh
COc1ccc(-c2nnsc2N2C(=O)c3ccccc3C2=O)cc1	-11%	4%
Cc1ccc2nc(-c3cccnc3)c(NC3CCCC3)n2c1	-14%	-1%
Cc1c(NS(=O)(=O)c2cc(C(=O)N(C)Cc3ccccc3)ccc2Cl)c(=O)n(-c2ccccc2)n1C	/	-4%
O=C(N/C(=C\c1ccccc1)C(=O)N1CCOCC1)c1ccccc1Cl	2%	-13%
Cc1nc(-c2ccc(NC(=O)CC(C)C)cc2)cs1	-15%	-1%
N#Cc1c(N)nc2c(c1N)CC(CO)O2 (stereo not given)	5%	20%
COc1cc(OC)cc(C(=O)Nn2cc(C(=O)Nc3ccccc3F)c3ccccc3c2=O)c1	8%	-11%
CC(C)(O)C#CC#CCN1CCOCC1	-13%	2%
O=C(Nc1ccc(C(F)(F)F)cc1)c1cccc(-n2cnnn2)c1	/	-3%
Cc1c(C=O)c2ccccn2c1C(=O)c1ccc(Cl)c([N+](=O)[O-])c1	-2%	0%
Cn1cc(CN(CCO)Cc2cccs2)c(-c2ccccc2F)n1	-10%	-2%
O=C(c1cc([N+](=O)[O-])ccc1N1CCCCC1)N1CCCC1	4%	-6%
CCOC(=O)C1C(O)=CC(=O)CC1c1ccccc1 (stereo not given)	-13%	2%
C/C(=N\NC(=O)c1cccc(S(=O)(=O)N2CCCC2)c1)c1ccc(C)cc1	-5%	2%
CCOC(=O)N1CCN(c2nnnn2-c2ccccc2)CC1	1%	-2%
O=C(O)c1ccc(CNCc2ccccc2Cl)s1	/	-3%
O=C(O)CN(c1cccc(C(F)(F)F)c1)S(=O)(=O)c1ccccc1	0%	0%
CC(=O)C1=C(C)NC(SCC(=O)c2ccc(Cl)c(Cl)c2)=C(C#N)C1c1ccco1 (stereo not given)	13%	-21%
Cc1ccc(S(=O)(=O)N2CCN(C(=O)N3CCOCC3)C2c2ccc(N(C)C)cc2)cc1 (stereo not given)	0%	0%
Cc1ccc(C(=O)OCC(=O)NC2CCCCC2)o1	-8%	1%
CNC(=O)Nc1cc(NC(=O)NC)cc(C(F)(F)F)c1	-2%	-12%
CCOc1ccc(C2C(C#N)=C(N)Oc3n[nH]c(C)c32)cc1OC(=O)C1CC1 (stereo not given)	3%	0%
Cc1c(-n2c(SCC(=O)O)nnc2-c2ccccc2Cl)c(=O)n(-c2ccccc2)n1C	9%	2%
CCCn1nc(NC(=O)c2ccco2)c2cc3cc(C)ccc3nc21	11%	-9%
COc1ccc2cc3c(N)nn(C(=O)c4ccc(Cl)c([N+](=O)[O-])c4)c3nc2c1	-3%	-2%
Cc1cccc(N2CCN(C(=O)CCNC(=O)Cn3ccc4ccccc4c3=O)CC2)c1C	10%	0%
CC(C)NS(=O)(=O)c1ccc(OCC(=O)N(C)Cc2ccccc2)cc1	0%	-4%
Cc1onc(-c2ccccc2Cl)c1C(=O)c1ccccc1	-2%	-7%
O=C1c2ccccc2NC(c2ccc(O)cc2)N1c1ccccc1 (stereo not given)	-8%	-14%
CCOC(=O)C1=C(C)N(C)C(=O)NC1c1cccc(O)c1 (stereo not given)	-5%	0%
CCOC(=O)c1sc(NC(=O)CCN2CCC(C)CC2)c(C(=O)OCC)c1C	23%	2%
Cc1ccc(CNC(=O)COC(=O)CCOc2ccc(C)cc2)cc1	2%	-2%
Cc1ccc[n+](CC(=O)Nc2cc(C(F)(F)F)ccc2N2CCOCC2)c1	-5%	-18%
O=C(c1cnc2n(c1=O)CCS2)N(C1CCCCC1)C1CCCCC1	1%	5%
COc1ccc(C2NC(=O)Cc3cc(OC)c(OC)cc32)cc1OC (stereo not given)	3%	5%
CCn1c(SC(C)C(=O)O)nnc1-c1cccnc1 (stereo not given)	5%	-15%[0.501 µM]
N#Cc1sc(=O)[nH]c1Cl	2%	/
CSCC[C@H](NC(=O)c1ccc(Cl)c(S(=O)(=O)N2CCCC2)c1)c1nc2ccccc2[nH]1	5%	-12%
COc1ccccc1C(=O)NCCSCc1ccccc1Cl	1%	-5%
Cc1cccc(C(=O)NCC(=O)NCCCSc2ccccc2)c1	2%	-4%
CCc1nc(N)c(C#N)c(-c2ccccc2OC)c1C	2%	-10%
Cc1cccc(NC(=O)c2sc(Cl)nc2-c2ccccc2)c1	13%	2%
CCOc1ccc(OCC)c(NC(=O)CSc2nnc(-c3cccnc3)o2)c1	2%	-25%
CC(=O)N1CCC2(CC1)C(C#N)=C(N)Oc1n[nH]c(CSc3ccc(C)cc3)c12	-17%	0%
COc1ccc(C(=O)N(c2ccc(OC)cc2)S(=O)(=O)c2ccc3c(c2)n(C)c(=O)n3C)cc1	/	-5%
COC(=O)C1=C(N)Oc2cc(C)n(Cc3ccccc3)c(=O)c2C1c1ccccc1 (stereo not given)	3%	-8%
Cc1ccccc1-c1nnc(CN2CCN(C(=O)c3ccco3)CC2)o1	-9%	0%
C=CCn1c(=O)c2ccc(C(=O)NCc3ccccc3)cc2n(Cc2cccc(Cl)c2)c1=O	10%	0%
Cc1cccc(NC(=O)c2ccc(S(=O)(=O)NCc3cccnc3)cc2)c1	-2%	-3%
O=C(Cn1nnc(-c2ccccc2)n1)N1CCN(c2ccc(F)cc2)CC1	3%	-1%
COCc1[nH][nH]c(=O)c1/C=N/N1CCOCC1	0%	2%
Cn1cc(C(=O)C(=O)N2CCN(c3ccccc3)CC2)c2ccccc21	-6%	-4%
CC12CCC(=O)N1C(C(=O)OCC(=O)Nc1ccc(S(N)(=O)=O)cc1)CS2 (stereo not given)	20%	0%
O=S(=O)(Nc1cccc(-c2cn3cccnc3n2)c1)c1ccccc1	2%	-5%
CCOC(=O)C1(C)NC(c2ccc(N(C)C)cc2)C2C(=O)N(CC)C(=O)C21 (stereo not given)	3%	3%
Cc1ccc(NC(=O)C2CCCN2C(=O)NCc2ccccc2)cc1 (stereo not given)	0%	-10%
O=C(O)CSc1nc2ccccc2n1C1CCCCC1	5%	20%
COc1cc2nc(CN3C(=O)c4ccccc4C3=O)oc(=O)c2cc1OC	29%	2%
Cc1c(C(=O)NCCC2=CCCCC2)oc2ccc(S(=O)(=O)N3CCC4(CC3)OCCO4)cc12	1%	-13%
O=C(CSc1ccc(-c2ccc(F)cc2)nn1)NCC1CCCO1 (stereo not given)	-6%	0%
CC(C)NC(=O)N(C)C[C@H]1Oc2ccc(NC(=O)Nc3ccccc3)cc2C(=O)N([C@@H](C)CO)C[C@@H]1C	/	-2%
CC(=O)c1ccc(N2CCN(S(=O)(=O)c3cn(C)cn3)CC2)cc1	-4%	-10%
O=C(CSc1ccc2nnc(-c3ccccn3)n2n1)Nc1ccc2c(c1)OCO2	6%	-4%
CCOC(=O)C1(Cc2ccc(Cl)cc2)CCN(C(=O)c2cc(C)nc(C)n2)CC1	1%	-3%

From PubChem BioAssay
